miR-21 FLuc – miR-21 reporter, rising signal | HeLa miR-21 FLuc reporter, luciferase, 48 h | Potency, µM (highest dose often 38.3 µM), for inactives: at the highest dose reporter change, positive = more light | 340,000 tested, under 10 active; active = well fitted rising curve with a large enough effect; inconclusive = small, poorly fitted or top-dose-only effect; inactive = no such curve, though single readings can be large or run the other way;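 note: % of control where 0% means no effect; miR-21 action dims this reporter so a rising signal means less miR-21 action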
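Compounds were titrated across several concentrations (up to approximately 40 uM) and incubated 48 hours with HeLa miR-21-FLuc reporter cells (miR-21 target sequence downstream of FLuc, endogenous miR-21). Readout was firefly luciferase luminescence after lytic detection reagent.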
GLA inh pH 4.5 – alpha-galactosidase A (human) inhibition, pH 4.5 | purified enzyme, 4-MU-alpha-Gal fluorescence, pH 4.5 | P06280 | 230,000 tested, under 10 active | activity change, negative = inhibition, % at 105 µM; inconclusive = small, poorly fitted or top-dose-only inhibition, or a rising curve; inactive = flat fitted curve, though single readings scatter; no compound was filed as active;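 note: 0% = full activity with enzyme and -100% = basal without enzyme; dose as in the result columns while the protocol names 77 µM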
Target sequence (P06280 whole entry, looked up): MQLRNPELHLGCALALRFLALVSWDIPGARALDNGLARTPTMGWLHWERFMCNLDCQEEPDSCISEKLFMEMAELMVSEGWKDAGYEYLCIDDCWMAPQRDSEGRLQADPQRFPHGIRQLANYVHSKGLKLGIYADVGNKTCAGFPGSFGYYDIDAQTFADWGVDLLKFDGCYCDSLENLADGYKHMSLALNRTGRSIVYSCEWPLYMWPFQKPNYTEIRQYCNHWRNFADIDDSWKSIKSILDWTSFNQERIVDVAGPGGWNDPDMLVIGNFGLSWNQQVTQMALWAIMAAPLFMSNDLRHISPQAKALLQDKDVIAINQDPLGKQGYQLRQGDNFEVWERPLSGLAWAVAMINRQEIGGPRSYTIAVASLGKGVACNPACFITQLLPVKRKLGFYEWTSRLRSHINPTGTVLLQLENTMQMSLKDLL
Rango release inh – inhibitors of RanGTP-induced Rango-importin beta complex dissociation; Potency, µM (doses to about 46.1 µM), inactives show top-dose activity change, negative = inhibition; AID 540253; Biochemical FRET Rango-importin beta, RanGTP-induced dissociation; O95149+P62826; 340,000 tested, 0.071% active; active means falling FRET ratio curve, often poorly fitted, with flat reads before Ran was added; inconclusive means other falling curves, or compound fluorescence or quenching; inactive means flat or rising ratio curve;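 note: potency is the fitted concentration of half-maximal effect; % of control where 0% means no effect; nearly all actives have a fitted effect of over 45% in size; -100% = wells without RanGTP and RCC1; the record marks most hits as doubtful in a second field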
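FRET read at 45 min, room temperature: inhibitors block the CFP/YFP signal rise when RanGTP (0.6 uM Ran, 2 mM GTP, 0.2 uM RCC1) frees Rango (0.1 uM) from importin beta (0.25 uM). Pre-read after 5 min compound exposure flags interference.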
Rango-impB inh – prevents formation of the Rango-importin beta complex. Q14974. Rango CFP/YFP FRET sensor + importin beta, 45 min. Potency, µM (series often up to 92.2 µM), inactives show at the top dose inhibition of complex formation. 340,000 tested, 0.031% active. AID 540263; active = rising FRET ratio curve, often small or poorly fitted; inconclusive = mostly compound fluorescence or quenching in the first reads; inactive = flat curves in all reads;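 note: potency is the fitted concentration of half-maximal effect; 0% = DMSO wells and 100% = buffer wells lacking importin beta; nearly all actives have a fitted effect of over 15% in size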
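Inhibition scored from the CFP 486 nm/YFP 530 nm FRET ratio 45 min after adding 0.125 microM importin beta to 50 nM Rango biosensor preincubated 5 min with compound (room temperature, PBS with DTT, Tween-20, BSA). No-importin wells as positive control.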
Starred values were filed as active, the others as inactive; ? = inconclusive; · = not tested or not shown.

SMILES	miR-21 FLuc	GLA inh pH 4.5	Rango release inh	Rango-impB inh
O=C(O)C1CCN(c2ncccn2)CC1	2.0%	-15.1	3.4%	0.1%
O=C(CSc1ccccc1)Nc1nnc(-c2ccco2)o1	·	·	-1.6%	-1.3%
Cc1ccccc1C(=O)c1cccn1CC(=O)NCCC1=CCCCC1	-12.8%	1.5	4.3%	-3.2%
O=C(NCc1ccc(F)cc1)C1CCCN1C(=O)Nc1cccc(F)c1 (stereo unspecified)	-1.2%	·	56.5%	2.5%
CCOc1ccccc1-n1nnnc1SCC(=O)O	-1.2%	-11.6	-4.9%	-2.1%
CCOc1ccccc1NC(=O)CSc1nc(=O)n(CCCN2CCOCC2)c2c1CCCC2	·	·	-2.2%	-1.5%
Cc1ccc2nc(-c3ccc(NC(=O)CN4CCN(C(=O)c5ccco5)CC4)cc3)sc2c1	-29.6%	-12.2	-24.3%	?
O=C(CSc1ncccn1)n1c2c(c3ccccc31)CCCC2	-13.6%	-14.3	8.8%	-4.5%
COc1ccc(S(=O)(=O)Nc2cccc3c2O[C@H](CN(C)S(=O)(=O)c2cccs2)[C@@H](C)CN([C@H](C)CO)C3=O)cc1	·	·	11.5%	-1.1%
CCOC(=O)C1(CCOc2ccccc2)CCN(Cc2ccc(-n3cccn3)cc2)CC1	23.2%	-14.1	3.8%	3.7%
COc1cc(C(=O)N2CCN(Cc3ccccn3)CC2)cc(OC)c1OC	-2.1%	·	-11.2%	2.2%
CCC(=O)NCc1ccc2[nH]c(C)cc2c1	-0.1%	-0.3	0.5%	-2.8%
NCCOc1ccc(C23CC4CC(CC(C4)C2)C3)cc1	?	-19.6	-10.1%	4.3%
CCn1c(SCC(=O)Nc2ccc(N3CCOCC3)cc2)nnc1-c1ccc(OC)cc1	-0.4%	0.7	6.3%	-0.6%
COc1cc(-c2nnc3sc(Cc4ccc(Cl)cc4)nn23)cc(OC)c1OC	·	·	-0.2%	5.0%
COc1cccc(N2CCN(C(=O)/C=C/c3ccco3)CC2)c1	-16.9%	3.1	44.3%	-3.1%
O=S(=O)(c1ccccc1)N1CCN(S(=O)(=O)c2ccccc2)C1	-3.7%	3.6	11.7%	4.2%
O=C(CSc1ccccc1F)NCC1(N2CCCCC2)CCCCC1	·	·	-2.2%	-1.2%
COCCn1c(C)cc(C(=O)COC(=O)C2CC(=O)N(CCc3ccc(OC)c(OC)c3)C2)c1C (stereo unspecified)	·	·	-5.0%	-1.8%
COc1cc(/C(C)=N/NC(=S)NC(C)C)cc(OC)c1OC	-2.9%	1.5	4.0%	0.2%
CC1CN(Cc2cc(=O)n3ccsc3n2)CC(C)O1 (stereo unspecified)	0.9%	-5.3	?	-3.9%
O=C(Cc1ccc(Br)cc1)NCCc1ccc(F)cc1	-11.7%	·	0.3%	-0.1%
Cc1c(N2C(=O)/C(=C\c3ccccc3O)SC2=S)c(=O)n(-c2ccccc2)n1C	-0.8%	-1.1	11.6%	7.8%
CCN(Cc1ccccc1)C(=O)c1cccc(S(=O)(=O)N2CCN(c3ccc(F)cc3)CC2)c1	·	·	12.6%	0.5%
CN(C)c1ccc(CN(Cc2ccco2)C(=O)c2ccco2)cc1	-0.6%	·	-9.5%	7.5%

(list continues)
SMILES	miR-21 FLuc	GLA inh pH 4.5	Rango release inh	Rango-impB inh
COC(=O)c1sc(S(=O)(=O)N2CCN(c3ccccc3F)CC2)c(C(=O)OC)c1C	·	·	0.5%	?
O=C(Nc1nc2c(s1)CCCC2)c1cccnc1	-34.7%	-1.5	-1.3%	-0.1%
O=C(NCc1ccccc1)c1ccc(S(=O)(=O)N2CCCc3ccccc32)cc1	0.6%	2.4	3.3%	1.0%
CCOC(=O)c1csc(NC(=O)COc2ccc(Cl)cc2Cl)n1	-21.1%	12.6	-26.7%	2.8%
Cc1ccc(NC(=O)c2cnccn2)nc1	-3.3%	·	-3.3%	-0.6%
COc1ccc(NC(=O)c2sc3ncn(CC(=O)N4CCCCC4)c(=O)c3c2C)cc1OC	-2.0%	·	0.0%	-0.1%
O=C(c1ccc(Cl)cc1)c1cnc(Nc2ccccc2Cl)s1	-37.5%	-2.3	7.7%	0.4%
C/C(=N/Nc1nc(C)cc(-c2ccccc2)n1)c1ccco1	-13.6%	6.4	13.3%	-2.3%
O=C(c1cccnc1)N(Cc1ccccc1)c1ccccc1	-2.3%	-0.3	-0.7%	-3.0%
CCCCC1CCC(C(=O)OCC(=O)N(CCOC)c2c(N)n(Cc3ccccc3)c(=O)[nH]c2=O)CC1 (stereo unspecified)	·	·	24.5%	-3.6%
Cc1cccc(/C=N/NC(=O)C2CCCNC2=O)c1 (stereo unspecified)	-10.3%	-10.5	-15.3%	2.0%
O=C(Cn1c(CO)nc2ccccc21)NCc1ccc2c(c1)OCO2	-3.4%	-8.8	-4.6%	-2.7%
COc1ccc(C2CC(c3ccccc3)Nc3nc(NC(=O)c4ccco4)nn32)cc1 (stereo unspecified)	-5.6%	-4.8	-15.0%	-1.8%
COc1cccc2c1OC1(C)CC2N(C(=O)c2ccco2)C(=S)N1c1ccc(F)cc1 (stereo unspecified)	-2.4%	4.5	-7.4%	0.4%
CC1CCCC(C)N1C(=O)CSc1nc2c(c(=O)n(C)c(=O)n2C)n1C (stereo unspecified)	14.6%	·	-22.2%	-3.0%
CCCC1Cc2nc(Cl)c(C#N)cc2CO1 (stereo unspecified)	-3.2%	-18.6	-1.8%	-2.8%
CN1CCN(C2=C(Cl)C(=O)N(CCc3ccccc3)C2=O)CC1	-33.9%	2.2	1.2%	2.7%
O=c1cc(CSc2ccccc2)[nH]c(=S)[nH]1	-1.1%	1.4	-0.3%	6.3%
O=C(NNC(=O)c1ccco1)c1ccccc1	-29.4%	1.9	-9.7%	-2.0%
CCOC(=O)c1nnsc1N	2.9%	-0.1	13.0%	-0.8%
COC(=O)c1nc2n(n1)C(c1ccc(OC)c(OC)c1)C(C(=O)OC1CCCCC1)=C(C)N2 (stereo unspecified)	0.4%	4.8	-4.6%	6.9%
O=C(CCN1C(=O)c2ccccc2C1=O)NC(=S)Nc1cccc(Cl)c1	0.3%	3.8	-11.6%	-2.1%
CC(=O)Nc1ccc(NC(=O)CSc2nnc(N)n2-c2ccccc2)cc1	·	·	-1.0%	0.0%
COc1cccc(NC(=O)CN(c2cccc(F)c2)S(C)(=O)=O)c1	-2.9%	1.9	6.1%	0.3%
Cc1ccc([N+](=O)[O-])cc1NC(=O)Cc1ccc(F)cc1	-4.6%	5.4	9.5%	-3.5%

Carrying on:
SMILES	miR-21 FLuc	GLA inh pH 4.5	Rango release inh	Rango-impB inh
COc1ccc(-c2cc(=O)oc3cc(OC(C)C(=O)NCC4CCC(C(=O)O)CC4)ccc23)cc1 (stereo unspecified)	-15.7%	·	-4.8%	-3.3%
CCCCNC(=S)NNC(=O)CCn1cc(C)cn1	-10.8%	5.4	2.3%	-1.5%
COc1ccc(-c2cn(Cc3ccc(C(N)=O)cc3)c(-c3ccncc3)n2)cc1	·	·	-5.3%	2.9%
COc1ccc(-c2ccc(SCC(=O)Nc3cccc(C(C)=O)c3)nn2)cc1OC	19.1%	-8.2	4.2%	-2.4%
NS(=O)(=O)c1ccc(CCNCC(=O)N2CCC(Cc3ccccc3)CC2)cc1	11.9%	-23.7	44.5%	0.0%
CCn1nc(C)cc1C(=O)N1CCCC(C(=O)c2ccc(Oc3ccccc3)cc2)C1 (stereo unspecified)	16.9%	·	1.2%	3.8%
COC(=O)c1ccccc1NC(=O)CN1CCCCC1	-0.6%	4.3	-14.1%	-0.1%
C/C(=N\NS(=O)(=O)c1ccc(C)cc1)c1ccc(C)o1	-21.1%	-16.7	-4.1%	0.2%
Cc1nn(Cc2c(F)c(F)c(F)c(F)c2F)c(C)c1NC(=O)c1ccc(COc2ccccc2Cl)o1	8.9%	-4.8	-2.7%	-0.7%
CCc1ccc(-c2cc(C)no2)cc1S(=O)(=O)N1CCN(c2cccc(C)c2C)CC1	0.9%	·	-4.7%	-2.5%
CC1(C)CC[C@]2(CO)CC[C@]3(C)C(=CCC4[C@@]5(C)CC[C@H](O)[C@@](C)(CO)C5CC[C@]43C)[C@@H]2C1 (stereo partly specified)	·	·	10.9%	-2.6%
COCCn1c(SCc2cnc(-c3ccccc3)s2)nnc1-c1ccncc1	6.4%	-1.6	-0.7%	-3.5%
CCOCCCNC(=O)CC1Oc2ccc(C)cc2NC1=O (stereo unspecified)	-0.1%	1.6	-2.9%	2.1%
Cc1ccnc(NC(=O)CCCOc2cc(=O)n(C)c3ccccc23)c1	22.9%	1.1	2.7%	4.9%
Cc1n[nH]c(C)c1S(=O)(=O)Nc1ccc2c(c1)OCCO2	-18.1%	1.2	3.9%	-0.6%
CCC(Oc1ccccc1)C(=O)Nc1ccccc1C(=O)N1CCOCC1 (stereo unspecified)	0.5%	·	-9.6%	2.2%
C=CCN(C(=O)CNS(=O)(=O)c1ccccc1)C(C(=O)NCCOC)c1cccnc1 (stereo unspecified)	-4.2%	·	10.3%	-0.4%
CSc1nnc(C)c(=O)[nH]1	1.1%	0.9	4.7%	6.8%
CN(CCCC1CCCC1)C(=O)CCc1nnc(-c2ccccc2)o1	-57.2%	4.0	-11.1%	-1.6%
COc1ccc(OCC(=O)NC(=S)NNC(=O)COc2ccc(Br)cc2Cl)cc1	-25.4%	4.8	-1.6%	0.0%
Cc1ccc(-n2nc(C)c3c(C)c(CCC(=O)NCCCOC(C)C)c(C)nc32)cc1	1.5%	·	6.4%	-0.1%
Cc1cccc(OCC(=O)O/N=C(\N)c2ccc(Cl)cc2)c1	0.5%	·	-8.6%	1.8%
CN1/C(=C\C(=O)COC(=O)c2ccc(O)c(O)c2)C(C)(C)c2ccccc21	0.1%	-0.8	-12.0%	-2.4%
CC1CCN(S(=O)(=O)c2ccc(C(=O)Nc3ccccn3)cc2)CC1	·	·	2.8%	0.6%
S=C(Nc1cccc(Cl)c1)N1CCN(c2ccccn2)CC1	0.3%	·	-0.9%	-0.5%

Later entries.
SMILES	miR-21 FLuc	GLA inh pH 4.5	Rango release inh	Rango-impB inh
COc1ccc(CC(=O)N(CCC2=CCCCC2)c2c(N)n(Cc3ccccc3)c(=O)[nH]c2=O)cc1OC	·	·	22.1%	9.4%
CC(=O)Nc1cccc(-c2csc(Nc3cc(C)ccn3)n2)c1	7.9%	-6.3	15.2%	-4.1%
COc1ccc(/C=C2\SC(=Nc3ccccc3OC)NC2=O)cc1	7.4%	·	-10.6%	0.1%
CCO[C@H]1OC(C(=O)N2CCCCCCC2)=C[C@@H](c2ccccc2)[C@@H]1CCCO	-3.9%	-2.9	-13.8%	-3.6%
Cc1ccc2[nH]c(C(=O)N3CCN(C=O)CC3)cc2c1	-8.9%	·	13.3%	3.3%
COc1ccc(NC(=O)C2CCN(c3ncnc4c3nc3n4CCCCC3)CC2)c(OC)c1	-4.7%	·	-18.9%	6.0%
CCCSc1nnc(NC(=O)c2nc(SC)ncc2Cl)s1	-3.3%	-22.4	-7.0%	-3.2%
Cc1ccc(NC2CCCN(C(=O)c3cn4cccc(C)c4n3)C2)cc1C (stereo unspecified)	-6.7%	·	-0.9%	?
COc1cccc(-n2nnc3c(=O)n(Cc4ccc(Br)cc4)cnc32)c1	-0.3%	3.6	-1.9%	0.1%
O=C(c1ccc2c(c1)OCO2)C1CCCN(C(=O)NCc2ccccc2)C1 (stereo unspecified)	-7.8%	8.7	-5.1%	2.9%
Cc1ccc(NC(=O)COC(=O)CC2SC(N3CCCC3)=NC2=O)cc1 (stereo unspecified)	·	·	1.3%	0.1%
COCCSc1ccccc1C(=O)Nc1ccc(Br)cc1	-15.5%	7.3	10.6%	-2.2%
COc1ccc(S(=O)(=O)NC2CCSc3ccccc32)cc1NC(C)=O (stereo unspecified)	-4.1%	·	0.3%	-0.4%

Ordered by the number under GLA inh pH 4.5 (descending): four from the list above.
canonical_smiles,GLA inh pH 4.5
CCOC(=O)c1csc(NC(=O)COc2ccc(Cl)cc2Cl)n1,12.6
CCCCNC(=S)NNC(=O)CCn1cc(C)cn1,5.4
COc1cccc(-n2nnc3c(=O)n(Cc4ccc(Br)cc4)cnc32)c1,3.6
COCCn1c(SCc2cnc(-c3ccccc3)s2)nnc1-c1ccncc1,-1.6

Some of the compounds tested; the hit share may differ from the screen's.
